Sa RN4220 lethal – growth inhibition of S. aureus RN4220, primary screen, OD600. 16 h. inhibition, % (test concentration not listed). AID 1259311, 2017. actives 0.33% (n = 330,000);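 active = z-score of -3 or lower and OD600 up to 0.18 on both plates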;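 note: plate controls were untreated cells for no effect and reference antibiotic for full effect; stock transfer was 100 nL into about 80 µL; one replicate is shown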
BJeLR viability – MLPCN primary cell-based screen for lethality selective to Ras in HRASV12 cells; AID 1554, 2009; BJeLR (HRASV12) viability, CellTiter-Glo ATP luminescence, 48 h; reference of the scale not given here; inhibition, % (concentration not given with the values); actives 0.17% (n = 300,000);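 active = replicate mean above 50%; inconclusive = above 50% but judged a plate artefact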;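 note: 50 nL library stock added to about 25 µL; numbers are from one replicate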
Autofluor counter – flagged as autofluorescent in microsphere protease counterscreen | compound autofluorescence counterscreen, microsphere flow cytometry; hits give high values | fluorescence intensity (test concentration not listed) | actives 3.1% (n = 360,000) | AID 624483;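 active = at least 3 SD above the mean of all compounds, about 16000 in these data; inconclusive = too few beads counted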;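 note: 100 nL of 1 mM stock went into each well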
Mtb hypoxia inh – PubChem AID 1159583; fluorescence inhibition, % (concentration not given with the values); M. tuberculosis hypoxia-regulated fluorescent reporter, fluorescence; actives 0.1% (n = 300,000);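 active = 35 to 45% if threefold the growth effect, above 45% if 1.5-fold the growth effect; inactive = the rest, general growth blockers included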;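 note: wells of about 50 µL received 100 nL stock; 0% = vehicle wells and 100% = reference inhibitor wells; whole bacteria with a GFP reporter of the hypoxia response; strong numbers were not always called active; many hits fall short of the cut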
Sa ugtP lethal – growth inhibition of ugtP-null S. aureus, primary screen, RN4220 ugtP deletion, OD600 | actives 0.54% (n = 330,000) | AID 1259309, 2017 | 16 h; some inactives read as strong as hits | growth inhibition, % (test concentration not listed);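 active = z-score under -3 and OD600 up to 0.15 on both plates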;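 note: plate controls were untreated wells for no effect and antibiotic for full effect; wells of about 80 µL received 100 nL stock; the first replicate is given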
PrP 5UTR inh – inhibition of PrP 5' UTR reporter expression | cell-based PrP 5' UTR mRNA reporter, plate reader | inhibition, % (no concentration beside the values) | actives 0.35% (n = 340,000) | AID 488862, 2010;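 active = every replicate at 50% or more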;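 note: 0 = median of the neutral control wells; tested in H4 reporter cells; numbers are from one replicate; inactives centre near -14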
Mtb hypoxia inh growth – second read-out of Mtb hypoxia inh, no call of its own (marks repeat the call); growth inhibition, %; measured here: M. tuberculosis growth (absorbance);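 0% = vehicle and 100% = reference antibiotic; read after six days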
The depositor's hits bear a star; ? = inconclusive; . = not tested or not shown; & = joins results of further samples.

SMILES	Sa RN4220 lethal	BJeLR viability	Autofluor counter	Mtb hypoxia inh	Mtb hypoxia inh growth	Sa ugtP lethal	PrP 5UTR inh
CN(C)CCNC(C(=O)Nc1cccc(C(F)(F)F)c1)c1ccccc1 (stereo not drawn)	-2.0	-1	4126	4	9	-8	-2
COc1c2occc2c(OC)c2c(=O)cc(C)oc12	5.3	-19	6458	7	2	2	-4
Cc1csc(Sc2ccc(C(=O)OCC(=O)Nc3ccc(F)cc3[N+](=O)[O-])cc2[N+](=O)[O-])n1	8.5	12	2073	8	8	-2	-20
CCO/C=C1/C(=O)N(Cc2ccccc2)C(=O)c2ccccc21	0.2	8	1972	1	0	9	-23
CCCN1Cc2cccc(C(=O)NCc3ccccc3)c2C1=O	7.9	-2	16838*	8	6	13	-18
Cc1cccc(C)c1OCCOCCN1CCN(C)CC1	3.2&-0.1	-1	3200&8863	7&-2	0&3	8&-3	-15&-6
CC(C)c1ccc(C=NNC(=O)CC(=O)NCc2ccccc2)cc1	2.7	.	.	3	11	1	.
CCOC(=O)C1CCN(C(=O)CCCNC(=O)Cn2cnc3sc(C)c(C)c3c2=O)CC1	3.6	2	5236	10	3	0	-10
Cn1cc(/C=C2\SC(=S)N(NC(=O)c3cccc(Cl)c3)C2=O)c2ccccc21	16	.	5906	-2	16	-1	-48
Cc1ccc(CNC(=O)COC(=O)c2cnc(C)cn2)cc1	-2.0	-1	3798	7	2	8	-6
COC(=O)c1cc(CN2C(=O)c3ccccc3C2=O)c(O)c([N+](=O)[O-])c1	3.0	-6	3356	-17	9	-2	-14
O=C(Nc1ccccc1F)Nc1cccnc1Cl	4.4	-3	3023	7	0	17	-24
O=C(NN=Cc1cccnc1)c1ccccc1OCc1ccc(Cl)cc1	11	.	.	25	17	1	.
CCOC(=O)Cc1nc2cc(Cl)ccc2o1	6.7	3	4393	-8	-4	-1	9
C=CCNC(=S)Nc1ccc(C)cc1[N+](=O)[O-]	3.5	3	4203	5	14	3	-20
CCN(CC)S(=O)(=O)c1ccc(/C(O)=C2/C(=O)C(=O)N(CCOC)C2c2ccccc2)cc1 (stereo not drawn)	0.9	-11	2493	.	.	3	-9
CC(=O)c1cccc(NC(=O)c2ccc(OCc3c(C)noc3C)cc2)c1	1.7	.	?	-7	9	3	.
CC1CC(C)CN(CCCSc2ccccc2)C1 (stereo not drawn)	-1.3	-15	3178	-3	1	3	-23
CCC(c1nnnn1Cc1cccs1)N1CCN(C(=O)c2ccco2)CC1 (stereo not drawn)	7.3	7	4400	8	7	11	-14
CCOC(=O)Cn1cc([N+](=O)[O-])c(OC)n1	0.2	6	2532	.	.	-4	0
Cc1cc(Cn2ccnc2)c(C)c([N+](=O)[O-])c1Cn1ccnc1	0.0	-9	3516	-4	-16	8	-25
O=C1NC(=O)C2(Cc3c(nc4ccccn4c3=O)N3CCCCCC32)C(=O)N1Cc1ccccc1 (stereo not drawn)	2.0	.	3293	-3	2	7	-12
O=C(CN1CCN(Cc2ccccc2)CC1)N1CCN(c2ccccc2)CC1	0.6	-2	3835	6	-3	3	-30
CC(=O)Nc1ccc(S(=O)(=O)NC(CC(=O)NCCc2ccccc2)C(C)C)cc1 (stereo not drawn)	-3.3	9	12166	-9	4	-4	-24
CCOC(=O)N1CCN(c2c(NCCCN(CC)Cc3ccccc3)c(=O)c2=O)CC1	1.8	-22	8399	1	-6	1	.
CC(=O)Nc1ccc2ccc3cccc4ccc1c2c34	-3.6	5	2789	.	.	-15	-10
COc1ccc2c(c1OC)C(=O)OC2Nn1cncn1 (stereo not drawn)	1.4	.	10128	2	3	1	-23
CC(=O)NC(Cc1ccccc1)C(=O)NC1CCN(C(=O)c2ccc([N+](=O)[O-])cc2)CC1 (stereo not drawn)	2.7	-3	2477	6	6	-1	-9
COc1ccccc1-c1noc(-c2ccccc2)n1	.	10	2326	.	.	.	-76
O=C(NC(=S)Nc1cccc2cc(O)ccc12)c1ccccc1Br	-3.5	4	6532	7	17	2	1
Cc1occc1C(=O)N/N=C/c1ccc[nH]1	.	-7	5510	.	.	.	1
Cc1ccc(N(C(=O)C(F)(F)F)C(C(=O)NC2CCCCC2)c2ccncc2)cc1C (stereo not drawn)	3.7	-6	2186	-3	3	6	-20
COc1cc(C=O)ccc1Oc1nc(Nc2ccc(F)cc2F)nc(N2CCOCC2)n1	4.2	-5	4673	-3	2	-1	-13
CCOC(=O)C1CCCN(C(=O)Cn2ncc3c([nH]c4ccc(C)cc43)c2=O)C1 (stereo not drawn)	2.5	9	4281	3	1	-3	5
O=S1(=O)CCN(OCc2ccc(F)cc2Cl)CC1	14	5	3354	15	6	-3	-10
O=C(Cn1nc(-c2ccccc2)ccc1=O)NCCN1CCN(c2cccc(Cl)c2)CC1	3.0	7	21385*	0	5	8	-15
Cc1nc(Nc2nc3ccccc3o2)nc(C)c1C(=O)Nc1ccc(F)cc1	-1.4	.	4604	3	8	-9	-20
CCCCCNC(=O)CC1Nc2c3ccccc3nc(=S)n2C1=O (stereo not drawn)	6.4	4	7018	11	7	17	-8
NC(=O)C1(N2CCCCC2)CCN(C(=O)CSc2nc3ccccc3s2)CC1	-4.8	-3	3061	.	.	11	-4
O=C(NC1CC=CCC(CC(=O)N(CCO)Cc2ccccc2)C(=O)NC(Cc2c[nH]c3ccccc23)COC1=O)OCC1c2ccccc2-c2ccccc21 (stereo not drawn)	-1.4	.	.	19	39	-21	.
Cc1cc(C(=O)OCC(=O)c2cccc([N+](=O)[O-])c2)c2ccccc2n1	3.3	3	2570	11	5	8	-25
COc1ccc(C2CC=C(C(=O)O)C(c3ccccc3)N2S(=O)(=O)c2ccccc2C)cc1 (stereo not drawn)	20	.	.	13	9	14	.
CC(=O)Nc1ccc(NC(=O)CCS(=O)(=O)c2ccc3c(c2)oc(=O)n3C)cc1	0.5	3	4971	-2	1	2	-18
CCCCCOCC1CC(CC(C)=NNc2nc(-c3ccccc3)cs2)C(=O)O1 (stereo not drawn)	-3.8	.	.	4	7	-6	.
O=C(CCNC(=O)C1CCN(S(=O)(=O)c2ccc(F)cc2)CC1)Nc1ccccc1	6.1	15	4288	1	-2	14	-8
CN(C)S(=O)(=O)c1ccc2c(c1)nc(CCC(=O)Nc1ccc(N3CCOCC3)cc1)n2C	-0.9	-1	3235	-4	-5	-6	-21
CC(=O)N1CC(C)Sc2ccc(S(=O)(=O)NCc3ccc(F)cc3)cc21 (stereo not drawn)	11	3	5682	-3	0	5	-11
O=C(O)CCC(=O)OCCCc1cc2ccccc2c(=O)o1	2.1	.	3043	1	5	2	-8

Taken from the results shown, six compounds:
SMILES	Sa RN4220 lethal	BJeLR viability	Autofluor counter	Mtb hypoxia inh	Mtb hypoxia inh growth	Sa ugtP lethal	PrP 5UTR inh
Cc1nc(Nc2nc3ccccc3o2)nc(C)c1C(=O)Nc1ccc(F)cc1	-1.4	.	4604	3	8	-9	-20
CCCCCNC(=O)CC1Nc2c3ccccc3nc(=S)n2C1=O (stereo not drawn)	6.4	4	7018	11	7	17	-8
NC(=O)C1(N2CCCCC2)CCN(C(=O)CSc2nc3ccccc3s2)CC1	-4.8	-3	3061	.	.	11	-4
O=C(NC1CC=CCC(CC(=O)N(CCO)Cc2ccccc2)C(=O)NC(Cc2c[nH]c3ccccc23)COC1=O)OCC1c2ccccc2-c2ccccc21 (stereo not drawn)	-1.4	.	.	19	39	-21	.
Cc1cc(C(=O)OCC(=O)c2cccc([N+](=O)[O-])c2)c2ccccc2n1	3.3	3	2570	11	5	8	-25
COc1ccc(C2CC=C(C(=O)O)C(c3ccccc3)N2S(=O)(=O)c2ccccc2C)cc1 (stereo not drawn)	20	.	.	13	9	14	.

More compounds.
SMILES	Sa RN4220 lethal	BJeLR viability	Autofluor counter	Mtb hypoxia inh	Mtb hypoxia inh growth	Sa ugtP lethal	PrP 5UTR inh
N#C/C(=C/c1ccc(N2CCOCC2)o1)c1ccc(Br)cc1	15	-1	8531	11	13	9	-118
CCCCOc1ccc(C(=O)NN2CCOCC2)cc1	-0.2	-2	6459	10	11	1	-20
C=CCSc1nnc2n(CCc3ccccc3)c(=O)c3c4c(sc3n12)COC(C)(C)C4	4.0	-2	2375	-1	8	-18	-7
COCCN(C(=O)c1cccc(-n2cnnn2)c1)c1c(N)n(CC(C)C)c(=O)[nH]c1=O	1.7	-6	6600	4	4	2	-11
CC(C)(C)C1C/C(=C/c2ccccn2)C(=O)/C(=C/c2ccccn2)C1 (stereo not drawn)	20	0	4658	.	.	25	92*
Cc1ccc(S(=O)(=O)NCC(=O)NCC(=O)N(C)Cc2ccc3ccccc3c2)cc1C	1.4	6	6065	0	5	11	-19
Cc1cc(C)cc(NC(=S)NCCc2c[nH]c3ccccc23)c1	-1.9	1	4839	2	-5	19	8
NCc1ccc(S(N)(=O)=O)cc1	3.5&11	-2	4591&5822	-2&2	-4&11	-5&9	8&-8
Cc1nc2ccccc2c(=O)n1NC(=O)c1cccc([N+](=O)[O-])c1	4.9	4	2013	-2	8	2	-9
CN(C)c1ccc(C2N(C)C(=O)c3ccccc3N2C)cc1 (stereo not drawn)	5.6	6	3749	9	17	1	-55
O=C(NCC1COc2ccccc2O1)C1(c2ccccc2)CCCC1 (stereo not drawn)	5.2	7	4269	-2	1	5	-12
Cc1nn(-c2ccc(N3CCCCC3)nn2)c(C)c1CCC(=O)Nc1cc(F)ccc1F	-6.3	2	4937	-7	3	-5	-35
CCCCn1nc2cc(C(=O)NC3CCCc4ccccc43)ccc2c1OCC (stereo not drawn)	15	5	3961	8	7	5	-20
CCc1cc2c(=O)c(-c3nc4ccccc4n3C)c(C)oc2c(CN2CCN(CCO)CC2)c1O	-0.3	0	7081	1	-2	0	-42
O=C(NCc1ccc(F)cc1)C(c1ccccc1)N(C(=O)c1csnn1)C1CC1 (stereo not drawn)	1.0	-1	2771	-1	-7	3	-22
c1ccc(C2CCC(N3CCC(N4CCCCC4)CC3)CC2)cc1 (stereo not drawn)	3.4	8	.	13	16	0	.
Cn1c(=O)c2[nH]c(CCCCCCCc3nc4ccccc4[nH]3)nc2n(C)c1=O	5.6	.	2787	4	12	10	-25
CCOC(=O)C1(Cc2cccc(OC)c2)CCCN(Cc2cc(C(C)C)n[nH]2)C1 (stereo not drawn)	5.1	-3	2236	7	4	1	1
COc1cc(/C(C)=N/NC(=O)c2nnn(-c3nonc3N)c2-c2cccs2)ccc1O	.	-15	3814	.	.	.	-2
CCCCOc1c(Cl)cc(CNC(C)(C)CO)cc1OCC	2.4	7	4757	14	0	17	-32
CCCn1c(N)c(N(CCOC)C(=O)c2ccc(-c3ccc(Cl)cc3)o2)c(=O)[nH]c1=O	-1.1	-2	.	3	7	0	-24
CC(=O)Nc1nnc(SCC(=O)N2CCCc3ccccc32)s1	8.1	-3	4984	-5	-6	8	-1
C/C(CC(=O)NCc1ccc(Cl)cc1)=N\NC(=O)c1ccccc1F	.	2	2141	.	.	.	-13
NC(=O)CCN1CCN(Cc2cn[nH]c2-c2cccc3ccccc23)CC1	8.5	-2	4632	-2	-8	12	-12
O=C(Nc1ccccc1F)c1cnccn1	3.8	.	4468	17	4	8	-19
CN(C(=O)CSc1nnc(-c2ccccc2F)n1N)C1CCCCC1	0.1	.	7733	4	6	-2	-15
CC1CC(=O)Nc2ccccc2N1S(=O)(=O)c1cccs1 (stereo not drawn)	3.4	6	4359	14	9	2	.
Cc1c(C(=O)OCC(=O)N2CCCCC2C)oc2ccccc12 (stereo not drawn)	-0.4	.	9026	-6	4	0	-26
O=C(c1ccc(Cl)s1)N(Cc1nnc(-c2ccccc2Cl)o1)C1CC1	2.3	0	8121	3	0	5	-24
Cc1ccc(NS(=O)(=O)c2cccc(C(=O)N3CCOCC3)c2)cc1	-6.5	8	2933	8	1	0	-1
CCO[C@@H]1OC(C(=O)Nc2ccccc2)=C[C@H](c2ccccc2)[C@H]1CCCO	.	-8	3998	.	.	.	-11
Cc1cc(-n2c(C)cc(C(=O)CSc3nncn3C)c2C)no1	3.1	.	3997	8	11	8	-24
COc1ccccc1N/C(N)=N/c1nc(C(F)(F)F)cc(=O)[nH]1	1.1	3	2522	-6	7	-2	-39
CCOC(=O)/C=C1\SCC(=O)N1CC(=O)NCc1cccc(Cl)c1	7.1	-16	2341	12	-3	7	-15

Screens deposited in PubChem by several laboratories.
